# Screens (PubChem)
# PABP FP inh: PABP-poly(A) binding inhibition. P11940. PABP-poly(A) RNA binding, fluorescence polarization. inhibition, % at 35 µM. 1% of 290,000 active. AID 2014;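 active = 50% or more with normal probe brightness, or confirmed in later tests; inconclusive = above 50% with abnormal brightness, or retests that disagree; inactive = below 50% or failed in later tests; about a fifth of its hits are not listed in these tables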;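 note: calls also rest on retests at 20 µM and on dose response follow-up; controls were probe without protein and protein plus probe with vehicle; some compounds called inactive have numbers as strong as hits; many hits fall short of the cut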
# Target sequence (P11940 whole entry, looked up): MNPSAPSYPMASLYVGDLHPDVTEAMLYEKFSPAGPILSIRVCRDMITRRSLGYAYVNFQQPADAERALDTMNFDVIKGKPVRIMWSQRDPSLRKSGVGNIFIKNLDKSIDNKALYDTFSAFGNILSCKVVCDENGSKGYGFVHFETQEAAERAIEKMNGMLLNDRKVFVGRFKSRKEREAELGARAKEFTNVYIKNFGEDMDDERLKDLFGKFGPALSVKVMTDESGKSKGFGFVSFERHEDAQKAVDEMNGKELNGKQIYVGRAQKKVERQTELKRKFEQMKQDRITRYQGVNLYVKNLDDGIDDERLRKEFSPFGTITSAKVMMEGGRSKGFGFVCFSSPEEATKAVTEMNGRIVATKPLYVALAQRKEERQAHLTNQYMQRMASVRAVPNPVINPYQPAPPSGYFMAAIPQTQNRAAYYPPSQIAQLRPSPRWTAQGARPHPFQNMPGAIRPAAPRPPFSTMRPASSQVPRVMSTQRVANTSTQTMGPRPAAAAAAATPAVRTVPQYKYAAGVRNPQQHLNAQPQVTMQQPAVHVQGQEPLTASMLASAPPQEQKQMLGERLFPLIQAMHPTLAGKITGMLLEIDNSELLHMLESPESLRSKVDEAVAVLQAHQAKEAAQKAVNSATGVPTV
# Rce1 inhib: blocks yeast Ras-converting enzyme; Q03530; yeast membranes, quenched prenylated peptide cleavage fluorescence; calls only; 0.27% of 290,000 active;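 active = fall in fluorescence gain of 50% or more versus controls, with final raw signal at or below 3038400; inconclusive = same 50% fall but final raw signal above 3038400; inactive = fall in fluorescence gain under 50%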;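 note: plate controls were neutral control wells for no effect and wells lacking membranes for full effect; tested at 10 µM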
# CSC inhib: blocks cancer stem cells; AID 2717; cancer stem cell-like cells viability, luminescence; 1.1% of 300,000 active; inhibition, % at 7.5 µM;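 active = mean at 75% or more and at least half the replicates too; inconclusive = mean and replicates disagree; tested in HMLE shEcad cells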;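 note: 0% = median of negative and 100% = median of positive control wells; the first replicate is given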
# MT1-MMP act inh: inhibitors of human MT1-MMP activation; 0.061% of 360,000 active; GFP/RFP ratio change, % at 20 µM; P50281; HT1080 RFP-PRO-GFP cells, GFP/RFP ratio fluorescence, overnight; percent of plate control window, DMSO zero;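 active = GFP/RFP ratio change of at least 30% with cell ATP level not reduced by more than half and red fluorescence within 50% of control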; note: strong numbers were not always called active
#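 Test system: HT1080 cells expressing an RFP-PRO-GFP fluorescent reporter construct / Compound dosing: single-point 20 µM compound, 1% DMSO / Schedule: cells overnight before dosing, compound overnight, 37 °C, 5% CO2 / Evaluation: GFP/RFP fluorescence ratio / Control set: DMSO and RFP-L50D-GFP cell wells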
# Env fusion inh: HIV envelope-mediated fusion inhibition; HeLa-JRFL Env/CEM21 cell fusion, luciferase; inhibition, % at 12.3 µM; 1.1% of 360,000 active; AID 651610;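 active = mean replicate inhibition score of at least 50 and every replicate individually at or above 50; inconclusive = only one of the two criteria met; inactive = mean below 50 and not all replicates reaching 50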;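 note: 0% = plate neutral controls and 100% = maraviroc near 300 nM; one replicate is shown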
# eIF4H FP inh: inhibitors of RNA binding by human eIF4H; 0.94% of 290,000 active; eIF4H fluorescence polarization binding assay; Q15056; inhibition, % at 35 µM; AID 2012;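 active = 50% or more with normal probe brightness, or confirmed in later tests; inconclusive = above 50% with abnormal brightness, or retests that disagree; inactive = below 50% or failed in later tests; about a fifth of its hits are not listed in these tables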;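 note: calls also rest on retests at 20 µM and on dose response follow-up; 0% = protein and probe with vehicle and 100% = probe without protein; strong numbers were not always called active; many hits fall short of the cut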
# UUG fidelity: alters start codon recognition fidelity in yeast | AID 602363 | 0.13% of 350,000 active | activity score, % at 18.7 µM | S. cerevisiae UUG-firefly luciferase reporter, luminescence/redox ratio;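 active = replicate mean at a twofold rise or more, about +100% in these data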;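 note: firefly luciferase made from a UUG start codon reports start codon fidelity; reporter light over untreated wells divided by growth signal over untreated wells; some hits fall short of that in this replicate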
# eIF4H FP inh retest: second read-out of eIF4H FP inh, no call of its own (marks repeat the call); inhibition, %; compound at 20 µM; confirmation average;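 mean of two retest wells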
# PABP FP inh retest: recorded beside PABP FP inh, whose call it bears; inhibition, %; compound at 20 µM; confirmation repeats;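 mean of two retest wells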
# MT1-MMP act inh RFP: further read-out of MT1-MMP act inh, marked with its call; RFP signal change, %; measured here: RFP expression control read;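 0 = vehicle wells; hits needed this value within 50% of zero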
# * marks the source's active call; other numbers are inactive results; i = inactive; ? = inconclusive; . = not tested or not shown. This is a subset. The share of hits here may be higher or lower than overall.
SMILES,PABP FP inh,Rce1 inhib,CSC inhib,MT1-MMP act inh,MT1-MMP act inh RFP,Env fusion inh,eIF4H FP inh,UUG fidelity,others
CC1CCCCN1C(=O)Cn1c(=O)oc2cc(S(=O)(=O)N3CCCCC3)ccc21 (stereo not given),-1,i,-15,0,2,-17,-6,-4,
Cc1cc(OC(C)C(=O)N2CCN(c3ccc(F)cc3)CC2)c2c(C)cc(=O)oc2c1 (stereo not given),7,i,-6,5,-10,2,-5,.,
C=CCSc1nc2sc3c(c2c(=O)[nH]1)CC(C)(CC)OC3 (stereo not given),2,i,-2,20,-6,-1,1,7,
CC1(C)CC(=O)C2=C(C1)Nc1ccccc1N=C2,0,i,-7,.,.,.,?,.,
COc1ccccc1N1CCN(CC(=O)c2c(C)[nH]c3ccccc23)CC1,-7,i,8,-5,0,.,-6,-6,
CCC(C(=O)Nc1ccsc1C(=O)OC)c1ccccc1 (stereo not given),3,i,2,-8,-5,13,-3,.,
Cc1cc(C(=O)N2CCC(Cc3ccccc3)CC2)ccc1[N+](=O)[O-],-4,i,27,4,-5,.,2,-14,
COc1ccc(OCC(O)CN2CCN(c3ccccc3)CC2)cc1 (stereo not given),6,i,14,2,4,0,7,-8,
CC1(C)Cc2c(cnn2-c2ccccc2)C(=O)/C1=N\NC(=O)c1ccncc1,.,i,10,-2,2,5,.,-40,
CCN1C(=O)N[C@@H](CCc2ccccc2)[C@@H](C(=O)OC)[C@H]1C,9,i,-7,0,-1,4,-13,5,
O=C(c1ccco1)N1CCN(C(c2ccccc2F)c2nnnn2CC2CCCO2)CC1 (stereo not given),13,i,16,3,3,.,-3,-3,
O=C(CSc1nnc(-c2ccccc2O)o1)Oc1ccc(OCc2ccccc2)cc1,0,i,37,4,-5,5,-8,0,
Cc1cc(N2CCOCC2)nc(SCC(=O)c2ccccc2)n1,9,i,-10,-1,-4,.,-1,-1,
COc1ccc(N(C(=O)c2cnccn2)C(C(=O)NC2CCCCC2)c2ccccc2)cc1 (stereo not given),8,i,-10,-1,3,3,-10,14,
O=[N+]([O-])c1ccc(/C=N/Nc2ccnc3cc(Cl)ccc23)o1,10,i,15,4,5,-45,2,-12,
Cc1onc(-c2ccccc2)c1C1=N/C(=C\c2ccccc2F)C(=O)O1,3,i,-11,-2,1,13,-8,.,
CC(C)(C)S(=O)N1Cc2cc(CO)ccc2[C@H]1CCO (stereo not given in full),.,.,.,-1,1,13,.,-4,
Cc1ccc(-c2nc3ncccc3o2)cc1NC(=O)COc1ccccc1,-5,i,-2,4,0,.,-2,0,
COCCNC(=O)c1ccccc1NC(=O)CSc1ccc(C)cc1,19,i,.,0,-1,-6,-6,.,
Cc1ccc2nc(SCC(=O)NCc3ccco3)c(C#N)cc2c1,8,i,-3,6,4,-32,-2,-19,
COc1cccc(CC(=O)Nc2cc(S(=O)(=O)N3CCOCC3)ccc2OC)c1,.,.,.,-4,-3,-12,.,-20,
Cc1ccccc1C(=O)N=c1ccn(-c2nc3ccccc3nc2NS(=O)(=O)c2ccc(F)cc2)cc1,?,i,-11,-9,-1,-5,?,-19,
COc1ccc(-c2[nH]nc3c2C(c2ccoc2)C(C#N)=C(N)O3)cc1 (stereo not given),22,i,-6,1,8,.,3,-18,
C/C(=N\NS(=O)(=O)c1ccc(Br)cc1)c1ccncc1,1,i,11,5,2,.,2,-17,
CCOc1ncccc1C(=O)Nc1cccc(C(=O)Nc2cccc(S(=O)(=O)CCO)c2)c1,12,i,-4,5,-3,-25,-1,19,
COc1ccc(S(=O)(=O)N2CCN(c3ccccn3)CC2)c(OC)c1,-6,i,-4,5,0,20,-11,-15,
O=C(c1cc2cc(F)ccc2[nH]1)N1CCN(C(=O)c2ccco2)CC1,-2,i,-15,-3,1,-9,-8,-3,
Cc1ccccc1-n1c(-c2ccc3ccccc3n2)n[nH]c1=S,-5,i,-7,0,-3,-1,1,-25,
CCOC(=O)/C(N=Nc1c(C)n(C)n(-c2ccccc2)c1=O)=C(/O)c1ccccc1,6,i,5,6,8,-28,-1,.,
Cc1oc(-c2ccccc2)nc1CS(=O)CC(=O)N1CCc2ccccc2C1 (stereo not given),15,i,-15,-2,-2,-2,20,-4,
N=C(N)SCCN,.,.,-16,3,-1,.,.,9,
Cc1cccc(C(=O)NCCC(=O)Nc2ccc(C#N)cc2)c1,2,i,-6,3,4,-11,0,-16,
CC1(C)C=C(c2ccc(C=O)s2)CC(C)(C)N1C=O,0,i,-2,4,3,4,-2,.,
CCn1c(SCC(=O)Nc2ccc(S(=O)(=O)Nc3onc(C)c3C)cc2)nnc1-c1ccccc1,8,i,-4,-3,0,2,-5,-14,
CSc1ccc(/C=C/c2cc(=O)c3ccccc3[nH]2)cc1,58,i,-5,-6,-9,-29,131*,.,eIF4H FP inh retest=72*;PABP FP inh retest=41
NC(Cc1ccc(C(F)(F)F)cc1)c1csc(Nc2cc(NCc3ccco3)ncn2)n1 (stereo not given),.,.,.,-4,-2,-52,.,-47,

# Random excerpt: four entries already listed, in no set order.
SMILES,PABP FP inh,Rce1 inhib,CSC inhib,MT1-MMP act inh,MT1-MMP act inh RFP,Env fusion inh,eIF4H FP inh,UUG fidelity,others
Cc1cccc(C(=O)NCCC(=O)Nc2ccc(C#N)cc2)c1,2,i,-6,3,4,-11,0,-16,
Cc1ccccc1-n1c(-c2ccc3ccccc3n2)n[nH]c1=S,-5,i,-7,0,-3,-1,1,-25,
Cc1oc(-c2ccccc2)nc1CS(=O)CC(=O)N1CCc2ccccc2C1 (stereo not given),15,i,-15,-2,-2,-2,20,-4,
CSc1ccc(/C=C/c2cc(=O)c3ccccc3[nH]2)cc1,58,i,-5,-6,-9,-29,131*,.,eIF4H FP inh retest=72*;PABP FP inh retest=41

# Part of the list above in order of length of the SMILES, high to low:
SMILES,PABP FP inh,Rce1 inhib,CSC inhib,MT1-MMP act inh,MT1-MMP act inh RFP,Env fusion inh,eIF4H FP inh,UUG fidelity,others
CCn1c(SCC(=O)Nc2ccc(S(=O)(=O)Nc3onc(C)c3C)cc2)nnc1-c1ccccc1,8,i,-4,-3,0,2,-5,-14,
NC(Cc1ccc(C(F)(F)F)cc1)c1csc(Nc2cc(NCc3ccco3)ncn2)n1 (stereo not given),.,.,.,-4,-2,-52,.,-47,
O=C(c1cc2cc(F)ccc2[nH]1)N1CCN(C(=O)c2ccco2)CC1,-2,i,-15,-3,1,-9,-8,-3,
CC1(C)C=C(c2ccc(C=O)s2)CC(C)(C)N1C=O,0,i,-2,4,3,4,-2,.,

# More entries:
SMILES,PABP FP inh,Rce1 inhib,CSC inhib,MT1-MMP act inh,MT1-MMP act inh RFP,Env fusion inh,eIF4H FP inh,UUG fidelity,others
NC(=O)CNC(=O)[C@@H]1CC2(CC(c3cccc(Br)c3)=NO2)CN1C(=O)c1ccc(Br)cc1 (stereo not given in full),-1,i,-1,6,3,-4,-7,-3,
Cc1cccc(N(CC(=O)NCC2CCCO2)C(=O)CNS(=O)(=O)c2ccc(Cl)cc2)c1 (stereo not given),-9,i,-10,-3,0,-12,-20,-1,
OCCNc1c2ccccc2nc2ccccc12,-2,i,12,6,12,16,10,.,
Cc1ccc(S(=O)(=O)CCC(=O)OCC(=O)N2c3ccccc3CC2C)cc1 (stereo not given),.,i,-3,4,0,-5,.,.,
CCn1c(C)cs/c1=N\C(=S)Nc1ccccc1C,22,i,2,0,2,8,-13,.,
COc1ccc(N2CCN(C(=O)CCCn3nnnc3CN3CCOCC3)C(C)C2)cc1 (stereo not given),5,i,-1,-1,2,13,2,-7,
COc1ccc(C(=O)N2CCC(C(=O)O)CC2)c2ccccc12,11,i,2,1,5,5,-21,.,
O=C(COc1ccccc1)N1CCN(c2ccccc2)CC1,-2,i,.,0,5,11,-7,1,
CCCN1C(=O)/C(=C2\SC(N3CCCCC3)=NC2=O)c2ccccc21,0,i,-15,10,-9,-168,3,-10,
CNC(=O)COC(=O)c1ccc(Cl)c(S(N)(=O)=O)c1,-6,i,-14,-4,1,12,-2,.,
COCCNC(=O)c1ccc2nc(Cc3ccc(OC)c(OC)c3)oc2c1,10,i,-4,2,-1,-47,18,-6,
O=C(C1CCN(c2nnc(-n3cccc3)s2)CC1)N1CCCCC1,7,i,-2,0,-2,-16,1,-9,
Cn1cc(CN2CCC(C(=O)Nc3ccc(Oc4ccccc4F)cc3)CC2)cn1,2,i,.,-3,4,0,-10,-13,
CCOC(=O)C1(Cc2ccccc2C(F)(F)F)CCN(C2CCN(C(C)=O)CC2)CC1,1,i,8,-1,2,11,6,-9,
COc1ccccc1NC(=O)NCCC1=CCCCC1,-9,i,3,1,1,30,-4,.,
O=C(c1cc(-c2ccccc2Cl)nc2ccccc12)N1CCOCC1,0,i,-17,-2,-1,-12,6,6,
O=C(Cc1c[nH]c2ccccc12)N/N=C/c1ccc(F)cc1,-12,i,-3,4,4,-19,-7,-6,
CC1CCCN(C(=O)COC(=O)CNC(=O)c2ccc(Br)cc2)C1 (stereo not given),.,i,-8,1,1,-5,.,-10,
CCn1c2ccccc2c2cc(NC(=O)C(=O)NCC3CCCO3)ccc21 (stereo not given),-7,i,6,2,0,11,4,-18,
COc1ccc(SC[C@H](C)CN2CC[C@H](C(C)(C)C)CCC2=O)cc1,.,.,52,-6,-14,30,.,3,
CC(=O)Nc1ccc(S(=O)(=O)N2CCSC2c2ccc(C)cc2)cc1 (stereo not given),-9,i,2,0,-6,.,-7,-12,
COC(=O)c1[nH]c2cccc(C)c2c1NC(=O)CN1CCN(c2ccccc2OC)CC1,0,i,-10,2,1,.,-7,2,
CCNc1ccc(Br)cc(C(=O)/C=C/c2ccccc2Cl)c1=O,.,i,-18,-18,-3,-7,.,9,
CCN(CC)CCN(C)C1CCC(c2ccccc2)CC1 (stereo not given),-5,.,50,1,7,-14,3,.,
COc1ccccc1CN1CC(C(=O)NCCn2ccc(C)n2)CCC1=O (stereo not given),-2,i,-5,1,5,-6,-8,1,
COc1ccc(-c2csc(N(CCc3ccccc3)C(=O)COc3ccccc3)n2)cc1,10,i,30,-3,-4,-78,-8,-19,
Cc1cccc(Cc2c(C)nc3nc(SCC(=O)O)nn3c2C)c1,0,i,.,-3,1,0,-14,.,
Cc1ccccc1CNC(=O)CC1C(=O)NCCN1Cc1c(F)cccc1Cl (stereo not given),6,i,-11,5,-3,23,4,.,
c1cc2c(cc1C1CCCCC1)c1c3n2CCN=C3CCC1,36,i,25,-4,-3,.,-10,-16,
Cc1cc(-c2ccc(C)c(S(=O)(=O)NCCc3ccco3)c2)on1,-1,i,7,0,0,-112,-6,-10,
CC(CCc1ccc(O)cc1)N(C)CCc1ccccc1 (stereo not given),15,i,-9,2,2,10,10,-6,
CC(C)CCNC(=O)c1cccc(Cl)c1,3,i,-14,.,.,-85,-7,-6,
COc1cccc(C(=O)O/N=C(\N)c2ccccn2)c1OC,21,i,2,3,4,-2,13,-77,
